Compound activity as filed in PubChem.
PV pol inh: inhibitors of poliovirus RNA polymerase binding and polymerization. P03300. poliovirus polymerase elongation, fluorescence polarization; active compounds read low. % elongation, % (compound at 16.7 µg/mL). 150,000 tested, 0.66% active. AID 588519; in the data active = % elongation below about 90%; also: some results filed as inactive read as strong as hits
Target sequence (P03300 1749-2209 limits assumed): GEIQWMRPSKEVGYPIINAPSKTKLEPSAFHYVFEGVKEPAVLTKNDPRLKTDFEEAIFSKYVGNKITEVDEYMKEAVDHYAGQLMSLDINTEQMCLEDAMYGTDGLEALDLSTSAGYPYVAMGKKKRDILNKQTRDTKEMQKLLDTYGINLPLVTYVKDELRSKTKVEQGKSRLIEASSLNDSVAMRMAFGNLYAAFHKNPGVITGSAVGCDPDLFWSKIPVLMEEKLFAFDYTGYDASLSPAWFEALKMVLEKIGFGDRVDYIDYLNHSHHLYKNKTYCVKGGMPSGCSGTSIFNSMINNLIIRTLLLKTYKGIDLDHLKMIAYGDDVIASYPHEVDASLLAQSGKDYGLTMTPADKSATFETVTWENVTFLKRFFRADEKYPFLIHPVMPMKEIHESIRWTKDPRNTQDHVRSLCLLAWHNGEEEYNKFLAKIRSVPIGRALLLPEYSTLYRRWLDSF
PV pol inh intensity: further read-out of PV pol inh, marked with its call; % elongation; measured here: total intensity read-out; formula for this scale not given here;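 total fluorescence in place of polarization; lower means less elongation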
Active calls of the source: *. Only part of the results is shown; count on the stated rates, not on these rows.

SMILES	PV pol inh	PV pol inh intensity
O=C(Nc1cccc(C(F)(F)F)c1)C1CCN(c2nnc(-n3cccc3)s2)CC1	104	108
Cc1ccccc1NC(=O)c1nc(-c2ccncc2)no1	103	106
COc1ccc(-c2onc(C)c2C)cc1S(=O)(=O)NCc1ccc(Br)cc1	108	111
CCc1ccccc1N(C)C(=O)c1cn(-c2cccc(OC)c2)c(=O)c2ccccc12	107	112
CCN1CCN(CCCNC(=O)c2cnn(-c3ccccc3)c2C2CCN(C(=O)OC(C)(C)C)CC2)CC1	101	102
COc1cccc(OC)c1Cn1nnc2c(=O)[nH]c(C3CCN(C(=O)c4ccccc4)CC3)nc21	105	100
COc1cccc(-c2cc(C(=O)Nc3cc(Cl)ccc3O)on2)c1	104	98
COc1ccc(C2CC(=O)N(Cc3cccc(C)c3)c3c2c(C)nn3-c2nc(C)cc(C)n2)c(OC)c1 (stereo not given)	109	107
CCOc1ccc(NC(=O)C2CCN(c3nnc(-n4c(C)ccc4C)s3)CC2)cc1	104	108
CCCOc1ccc(NC(=O)CC2C(=O)N(c3ccc(Cl)cc3)C(=O)N2CCc2ccncc2)cc1 (stereo not given)	118	113

4 consecutive compounds out of the list so far:
SMILES	PV pol inh	PV pol inh intensity
O=C(Nc1cccc(C(F)(F)F)c1)C1CCN(c2nnc(-n3cccc3)s2)CC1	104	108
Cc1ccccc1NC(=O)c1nc(-c2ccncc2)no1	103	106
COc1ccc(-c2onc(C)c2C)cc1S(=O)(=O)NCc1ccc(Br)cc1	108	111
CCc1ccccc1N(C)C(=O)c1cn(-c2cccc(OC)c2)c(=O)c2ccccc12	107	112

Whole records, quoted from the list. Order of screens: PV pol inh	PV pol inh intensity
`COc1cccc(-c2cc(C(=O)Nc3cc(Cl)ccc3O)on2)c1` is entered as 104	98
`O=C(Nc1cccc(C(F)(F)F)c1)C1CCN(c2nnc(-n3cccc3)s2)CC1` is entered as 104	108

The list continues.
SMILES	PV pol inh	PV pol inh intensity
Cc1cc2nc(-c3ccc(OCc4ccccc4F)cc3)cc(C(F)(F)F)n2n1	111	111
CCC1=Nc2cc(C(=O)NCc3ccccc3OC)ccc2Sc2ccc(Cl)cc21	111	104
Cc1ccc(NC(=O)c2cccc3c(=O)c4c([nH]c23)CCCC4)c(C)c1	109	111
CCOc1ccc(NC(=O)c2c(NC(=O)Cc3ccccc3)sc3c2CCC(C)C3)cc1 (stereo not given)	83*	84*
CCc1cc2c(cc3c(=O)n(CC(=O)N4CCC(C)CC4)nc(CC)n32)s1	102	103
CCOCCCNC(=O)c1ccc(NC(=O)N2CCCCc3ccccc32)cc1	110	114
CCC(C)NC(=O)c1ccc(Cn2c(=O)c3cccn3c3cccnc32)cc1 (stereo not given)	108	100
Cc1cccc(CSc2nc(-c3cccc(C)c3)nc3c2Cc2c(CO)cnc(C)c2O3)c1	113	112
COc1cccc(CN2c3ccccc3-c3nc(SCC(=O)Nc4ccccc4Cl)ncc3S2(=O)=O)c1	103	109
CCOc1cc(C(=O)Nc2ccc3oc(-c4ccc(CC)cc4)nc3c2)cc(OCC)c1OCC	103	105
CCOc1ccc(NC(=O)CN2C(=O)CC(C)Sc3ccccc32)cc1 (stereo not given)	104	111
COc1cc(Nc2ncc3c(n2)CCN(Cc2cc(F)cc(F)c2)C3)cc(OC)c1	100	104
CCCOc1ccc(CNC(=O)C(CC)n2nc(C)c3sc4ccccc4c3c2=O)cc1 (stereo not given)	110	104
Cc1ccc(-c2csc(=Nc3ccccc3)n2CCCO)cc1	105	105
Cc1ccc(Cl)cc1NC(=O)N(Cc1ccc2c(c1)OCO2)C1CCN(Cc2ccccc2)CC1	106	109
COc1ccc(CN2CCc3c(c(=O)n4ncc(C(=O)N5CCN(c6ccccc6F)CC5)c4n3C)C2)cc1	110	109
Cc1ccccc1CN1c2ccccc2-c2nc(SCC(=O)Nc3cc(F)ccc3F)ncc2S1(=O)=O	112	112
COc1ccc(CCNC(=O)Cn2c(=O)c3cccn3c3ccc(F)cc32)cc1OC	111	108
Cc1onc(-c2ccccc2Cl)c1C(=O)Oc1ccc(Br)cc1	100	98
COc1cccc(N2CC(NC(=O)COc3ccccc3F)CC2=O)c1 (stereo not given)	101	106
Cc1ccc2c(=O)c(C(=O)c3ccc(F)cc3)cn(CC(=O)NCCc3ccccc3)c2n1	121	124
COc1ccccc1OCC(=O)NCC(c1ccc(Cl)cc1)N1CCOCC1 (stereo not given)	106	109
O=c1c2c3c(sc2n(Cc2cc(=O)n4ccccc4n2)c(=O)n1-c1ccc(Cl)cc1)CCC3	104	106
COc1ccc(C2CC(=O)c3cc(-c4nc(-c5cccc([N+](=O)[O-])c5)cs4)c(=O)n(-c4ccccc4)c3C2)cc1 (stereo not given)	103	108
Cc1ccc(S(=O)(=O)c2nnn3c2nc(N2CCCC2)c2sccc23)cc1	103	100
O=C1COc2ccc(-c3cc(-c4ccccc4)c4c(n3)-c3cc(Cl)ccc3OC4)cc2N1	105	105
Cc1ccc(Cl)cc1NC(=O)c1sc(-n2nc(C)c(Cc3ccc4c(c3)OCO4)c2C)nc1C	108	109
CCOC(=O)c1ccc(Nc2nc3nonc3nc2Nc2cccc(C)c2C)cc1	101	105
COc1ccc(Nc2nc(N)nc(CSc3nc4ccccc4s3)n2)cc1	108	110
Cc1cccc(N2CCN(C(=O)Cc3c(C(=O)O)c(C)cn3C)CC2)c1C	107	110
CCN(CC)C(=O)Cn1cc(SCC(=O)Nc2cccc(F)c2)c2ccccc21	113	101
Cc1cccc(C(=O)Nc2nnc(S(=O)(=O)N(C)Cc3ccccc3)s2)c1	103	106
O=C(NCc1ccc(Cl)cc1)c1ccc(NC(=O)N2CC3CCCN3c3ccccc32)cc1 (stereo not given)	108	109
CCc1ccc(NC(=O)c2ccc3nc(C(C)C)oc3c2)cc1	107	112
CC(C)c1ccc(NC(=O)c2ccc3c(O)c(S(=O)(=O)c4ccccc4)c(=O)[nH]c3c2)cc1	100	97
Cc1ccc(Cl)cc1N1CCN(C(=O)c2cn(C)c3ccc(S(=O)(=O)N4CCCCC4)cc3c2=O)CC1	102	101
O=C(CN1CCN(Cc2ccc(F)cc2Cl)C1=O)NCCc1ccc(Cl)cc1	114	117
COc1ccc(Cl)cc1NC(=O)Cn1nc(Cc2ccncc2)c2ccccc2c1=O	108	110
N#Cc1cc2c(nc1SCC(=O)Nc1cccc(F)c1)C1CCN2CC1	101	101
Cc1ccc(NC(=O)Cn2c(=O)n(CCCCC(=O)NCc3ccccc3Cl)c(=O)c3ccccc32)cc1C	105	104
COc1cc(Cl)c(NC(=O)C2CCN(S(=O)(=O)c3c(C)noc3/C=C/c3ccccc3F)CC2)c(OC)c1	105	111
CCCOc1ccc(C2c3c(-c4ccccc4O)n[nH]c3C(=O)N2Cc2ccncc2)cc1OCC (stereo not given)	107	113
COc1ccc(-n2c(=O)c3c4c(sc3n(Cc3ccc(F)cc3)c2=O)CN(C(C)=O)CC4)c(OC)c1	106	110
Cc1ccc(-c2cnc(C3CC3)o2)cc1S(=O)(=O)Nc1cccc(C#N)c1	110	107
Cc1ccc2cccc(NC(=O)c3ccc(-c4cc(Cl)ccc4Cl)o3)c2n1	105	107
O=S(=O)(NCC(c1ccco1)S(=O)(=O)c1cccs1)c1ccccc1 (stereo not given)	108	115
CCOC(=O)c1ccc(CN(Cc2ccccc2)S(=O)(=O)c2ccc(Cl)cc2)cc1	107	109
Cc1ccc(CN2C(=O)CC(c3ccc(Cl)cc3)c3c(C)nn(-c4nc(C)cc(C)n4)c32)cc1 (stereo not given)	105	109
CCOC(=O)c1[nH]c2ccccc2c1NC(=O)c1cc(OC)cc(OC)c1	110	111
Cc1cc(C)cc(NC(=O)Cn2nnc(C(=O)NCc3ccccc3Cl)c2N)c1	111	114

Sorted by molar mass (smallest number first): 6 of the compounds above.
SMILES	PV pol inh	PV pol inh intensity
N#Cc1cc2c(nc1SCC(=O)Nc1cccc(F)c1)C1CCN2CC1	101	101
Cc1cccc(N2CCN(C(=O)Cc3c(C(=O)O)c(C)cn3C)CC2)c1C	107	110
O=S(=O)(NCC(c1ccco1)S(=O)(=O)c1cccs1)c1ccccc1 (stereo not given)	108	115
Cc1cccc(C(=O)Nc2nnc(S(=O)(=O)N(C)Cc3ccccc3)s2)c1	103	106
CCc1ccccc1N(C)C(=O)c1cn(-c2cccc(OC)c2)c(=O)c2ccccc12	107	112
O=C(CN1CCN(Cc2ccc(F)cc2Cl)C1=O)NCCc1ccc(Cl)cc1	114	117

The list goes on.
SMILES	PV pol inh	PV pol inh intensity
COc1ccc(NC(=O)CSc2c3c(nc4ccccc24)CCC3)cc1Cl	101	97
COc1ccc(CNC(=O)c2ccc3c(c2)N(Cc2cccc(Cl)c2)C(=O)c2ccccc2S3)c(OC)c1	112	110
O=S(=O)(NCC(c1ccco1)S(=O)(=O)c1ccccc1)c1cc(F)ccc1F (stereo not given)	112	119
Cc1cc(C)cc(C(=O)NCCc2sc(-c3ccc(F)cc3)nc2C)c1	105	108
Cc1cc(NC(=O)CN2C(=O)CSc3ccc(S(=O)(=O)N(C)C)cc32)ccc1Br	102	106
CCOC(=O)N1CCc2c(sc(NCc3ccc(N(C)C)cc3)c2C(=O)Nc2ccc(OC)cc2)C1	106	109
COc1ccc(CCNC(=O)Cn2cc(S(=O)(=O)Cc3ccccc3Cl)c3ccccc32)cc1OC	106	107
O=C(CSC1=Nc2ccccc2C2=NC(CCC(=O)NC3CCCCC3)C(=O)N12)Nc1cccc(Cl)c1 (stereo not given)	117	111
CC(=O)N1c2c(cc(Br)cc2S(=O)(=O)NCc2ccccc2Cl)CC1C (stereo not given)	107	108
COc1ccc(CNC(=O)CN(c2ccccc2)S(=O)(=O)N(C)C)cc1	103	99
CCc1ccc(NC(=O)Cn2cnc3nc4c(cc3c2=O)CCCC4)cc1	109	99
CN1CCN(c2ncc3c(n2)CCN(Cc2ccccc2Cl)C3)CC1	105	111
Cc1ccc(C(c2sc3nc(-c4ccco4)nn3c2O)N2CCN(c3ccc(F)cc3)CC2)cc1 (stereo not given)	100	105
CCCN1Cc2cccc(C(=O)Nc3ccc(C(C)=O)cc3)c2C1=O	100	104
Cc1cccc2nc(-c3ccco3)c(Nc3ccc4c(c3)OCO4)n12	103	113
Cc1ccc2oc3c(c(=O)c2c1)C(c1ccc(O)cc1)N(CCCN(C)C)C3=O (stereo not given)	102	96
Cc1ccc(Cl)cc1N1CCN(CCCNC(=O)C2COc3ccccc3C2)CC1 (stereo not given)	106	111
CCOC(=O)c1ccc(CN(Cc2ccc(F)cc2)S(=O)(=O)c2ccc(F)cc2)cc1	110	114
Cc1ccc(-n2c(=O)c3c4c(sc3n(Cc3ccccc3C)c2=O)CCC4)cc1C	106	102
CCCSCCCNC(=O)c1cc2n(n1)CCCN(Cc1ccc(C)cc1)C2=O	112	100
O=C(NC1CC1)c1ccc(Cn2c(SCc3ccc(F)cc3)nc3cccnc32)cc1	111	111
Cc1ccc(CNC(=O)C(CC(C)C)N2Cc3ccccc3C2=O)cc1 (stereo not given)	108	98
CC(NC(=O)C(=O)Nc1c2c(nn1-c1ccc(F)cc1)CSC2)c1ccccc1 (stereo not given)	108	111
Cc1ccc(N(C)C(=O)Cn2cnc3onc(-c4ccc(F)cc4)c3c2=O)cc1C	102	108
COc1ccc(Cn2ccc3nc(C)c(C(=O)N4CCN(c5ccc(OC)cc5)CC4)cc3c2=O)cc1	120	117
CC(=O)c1ccc(NC(=O)c2nc3ccccc3n(C)c2=O)cc1	108	110
CCOC(=O)c1cnc2c(C)c(Cl)ccc2c1NCCc1ccc(OC)c(OC)c1	108	102
O=C(COc1ccccc1)NCc1ccc2c(c1)CCN2C(=O)c1ccc(F)cc1	113	116
COc1ccc(CCNC(=O)CCc2c(C)nc3c(c(C)nn3-c3ccc(C)c(C)c3)c2C)c(OC)c1OC	103	105
COc1ccc(C(=O)N(Cc2ccc(N(C)C)cc2)Cc2ccco2)cc1Cl	106	108
COc1cccc(-n2c(=O)c3c(C)c(C)sc3n(CC(=O)Nc3ccccc3OC)c2=O)c1	108	112
O=C(CCC(=O)N1CCOc2ccccc21)NCc1cccs1	112	115
CCc1ccc2oc(-c3ccc(C)c(NC(=O)/C=C/c4ccco4)c3)nc2c1	104	114
CCOC(=O)C(=O)Nc1c(C(=O)Nc2cccc(F)c2)oc2ccccc12	104	104
COc1ccc(N2CCN(CCCNC(=O)c3cc(Nc4ccc(OC)cc4OC)nc4ccccc34)CC2)cc1	104	113
Cc1cccc(N2CCN(c3ncnc4c3nc3n4CCCCC3)CC2C)c1 (stereo not given)	105	109
O=C(CSc1nc2ccccc2n1Cc1c(F)cccc1Cl)N1CCN(c2ccc(F)cc2)CC1	106	105
O=C(Nc1c(-c2ccccc2)nc2ccccn12)c1ccc(Br)cc1	103	105
COc1ccc(-c2nc(CS(=O)CC(=O)NCc3ccccc3Cl)c(C)o2)cc1OC (stereo not given)	111	112
COc1ccc(-c2cc(C(F)(F)F)nc(NCc3ccc(F)cc3)n2)cc1	99	101
COc1ccc(N2CCN(C3(c4ccccc4)C(=O)c4ccccc4C3=O)CC2)cc1	108	113
CCOc1ccc(-c2nc3c(C#N)c[nH]n3c2NC2CCCC2)cc1	107	104
COc1ccc(CCNC(=O)Cc2c(C)c3cc4c(C(C)(C)C)coc4c(C)c3oc2=O)cc1OC	110	111
O=C(CC1Oc2ccccc2NC1=O)NCc1ccc(F)cc1 (stereo not given)	103	99
COc1ccc(CNC(=O)C(C)n2c(=O)cc(C)c3c(C)nn(-c4ccccc4)c32)cc1 (stereo not given)	105	105
CCCSc1ncc(Cl)c(C(=O)N(Cc2ccccc2)c2ccc(OC)cc2)n1	107	113
Cc1ccc(O)c(NC(=O)CCS(=O)(=O)c2nc(-c3ccc4c(c3)OCO4)cc(C(F)(F)F)n2)c1	107	111
Cc1ccc2oc(-c3cc(NC(=O)Cc4ccccc4)ccc3Cl)nc2c1	103	103
CCCN1C(=O)C(Cc2nc3ccccc3c(=O)n2CC)c2ccccc21 (stereo not given)	111	117
CCOc1ccc(NC(=O)c2cccc(N3CCCS3(=O)=O)c2)cc1	103	103
